Screening data from PubChem BioAssay.
Rce1 inhib = yeast Rce1p protease inhibitors, primary screen, biochemical, fluorescence, cell-free homogeneous; CAAX prenyl protease 2 (Saccharomyces cerevisiae (strain ATCC 204508 / S288c)), Q03530; yeast membranes, quenched prenylated peptide cleavage fluorescence; calls only; 290,000 tested, 0.27% active; AID 2563, 2010;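 active = fall in fluorescence gain of 50% or more versus controls, with final raw signal at or below 3038400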;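 also: plate controls were neutral control wells for no effect and wells lacking membranes for full effect; tested at 10 µM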
Env fusion inh = inhibitors of HIV-1 Env-driven cell-cell fusion, primary screen, HeLa-JRFL effector, CEM21 target cells, luciferase | 360,000 tested, 1.1% active | inhibition, % at 12.3 µM | AID 651610, 2012;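 active = mean replicate inhibition score of at least 50 and every replicate individually at or above 50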;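 also: 0% = plate neutral controls and 100% = maraviroc near 300 nM; one replicate is shown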
eIF4H inh = human eIF4H binding inhibitors, primary screen, translation initiation inhibitor project, biochemical, uHTS, fluorescence polarization | Eukaryotic translation initiation factor 4H (Homo sapiens), Q15056 | eIF4H fluorescence polarization binding assay | inhibition, % at 35 µM | 290,000 tested, 0.94% active | AID 2012, 2009;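 active = 50% or more with normal probe brightness, or confirmed in later tests; about a fifth of its hits are not listed in these tables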;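 also: calls also rest on retests at 20 µM and on dose response follow-up; 0% = protein and probe with vehicle and 100% = probe without protein; strong numbers were not always called active; many hits fall short of the cut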
UUG fidelity = modulators of yeast start codon fidelity, primary screen, whole organism, S. cerevisiae, single point, plate reader; S. cerevisiae UUG-firefly luciferase reporter, luminescence/redox ratio; activity score, % at 18.7 µM; 350,000 tested, 0.13% active;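 active = replicate mean at a twofold rise or more, about +100% in these data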;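 also: firefly luciferase made from a UUG start codon reports start codon fidelity; reporter light over untreated wells divided by growth signal over untreated wells; some hits fall short of that in this replicate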
CSC inhib = cancer stem cell viability inhibitors, primary screen, luminescence; AID 2717, 2010; 300,000 tested, 1.1% active; cancer stem cell-like cells viability; inhibition, % at 7.5 µM;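 active = mean at 75% or more and at least half the replicates too; tested in HMLE shEcad cells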;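 also: 0% = median of negative and 100% = median of positive control wells; the first replicate is given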
MT1-MMP act inh = blockers of MT1-MMP proenzyme processing, primary screen, HT1080 RFP-PRO-GFP cells, GFP/RFP fluorescence; Matrix metalloproteinase-14 (Homo sapiens), P50281; GFP/RFP ratio fluorescence, overnight; percent of plate control window, DMSO zero; GFP/RFP ratio change, % at 20 µM; 360,000 tested, 0.061% active; AID 651647, 2012;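 active = GFP/RFP ratio change of at least 30% with cell ATP level not reduced by more than half and red fluorescence within 50% of control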; also: strong numbers were not always called active
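Assay system: HT1080 RFP-PRO-GFP cells | Dosing: 20 µM single dose, 1% DMSO | Incubation: Cells overnight before dosing, compound overnight, 37 °C, 5% CO2 | Evaluation: GFP/RFP fluorescence ratio | Control set: DMSO-only wells and HT1080 RFP-L50D-GFP cell wells as references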
PABP polyA inh = PABP poly(A) RNA binding inhibitors, primary screen, biochemical, fluorescence polarization, uHTS; Polyadenylate-binding protein 1 (Homo sapiens), P11940; inhibition, % at 35 µM; 290,000 tested, 1% active;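 active = 50% or more with normal probe brightness, or confirmed in later tests; about a fifth of its hits are not listed in these tables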;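 also: calls also rest on retests at 20 µM and on dose response follow-up; controls were probe without protein and protein plus probe with vehicle; some compounds called inactive have numbers as strong as hits; many hits fall short of the cut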
Target sequence (P11940 whole entry, looked up): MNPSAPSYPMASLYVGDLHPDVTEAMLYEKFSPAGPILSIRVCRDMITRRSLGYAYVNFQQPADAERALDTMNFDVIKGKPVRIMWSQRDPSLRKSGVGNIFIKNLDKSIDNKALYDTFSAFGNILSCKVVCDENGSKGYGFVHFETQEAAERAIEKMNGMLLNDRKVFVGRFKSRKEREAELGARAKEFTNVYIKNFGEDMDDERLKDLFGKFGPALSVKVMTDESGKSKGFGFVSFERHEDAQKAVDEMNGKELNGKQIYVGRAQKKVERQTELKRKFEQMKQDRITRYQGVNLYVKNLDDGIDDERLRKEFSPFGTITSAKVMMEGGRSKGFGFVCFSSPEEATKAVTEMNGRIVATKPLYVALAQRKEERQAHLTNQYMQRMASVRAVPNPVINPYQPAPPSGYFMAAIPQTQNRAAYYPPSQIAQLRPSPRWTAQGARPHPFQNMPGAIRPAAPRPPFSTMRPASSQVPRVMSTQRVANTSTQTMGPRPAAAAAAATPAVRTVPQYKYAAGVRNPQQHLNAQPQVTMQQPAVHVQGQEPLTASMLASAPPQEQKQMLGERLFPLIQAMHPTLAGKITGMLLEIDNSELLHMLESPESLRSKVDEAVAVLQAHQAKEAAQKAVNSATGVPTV
eIF4H inh retest = also measured in eIF4H inh; calls as there; inhibition, %; compound at 20 µM; confirmation average;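 mean of two retest wells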
PABP polyA inh retest = recorded beside PABP polyA inh, whose call it bears; inhibition, %; compound at 20 µM; confirmation repeats;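 mean of two retest wells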
MT1-MMP act inh RFP = further read-out of MT1-MMP act inh, marked with its call; RFP signal change, %; measured here: RFP expression control read;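 0 = vehicle wells; hits needed this value within 50% of zero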
Starred values were filed as active, the others as inactive; i = inactive; nt = not tested or not shown; + = active, no number; & = joins results of further samples; [ ] = another dose, or the depositor's remark. This is a random part of the collection, and some 2.9% of all compounds hit somewhere here.

SMILES	Rce1 inhib	Env fusion inh	eIF4H inh	UUG fidelity	CSC inhib	MT1-MMP act inh	MT1-MMP act inh RFP	PABP polyA inh	others
COc1ccc(CNC2CCSc3ccccc32)cc1OC (stereo unspecified)	i	7	7	7	-5	1	-4	18
COc1ccc(Br)cc1CN1CCCCCC1	nt	-13	2	-1	-14	1	4	20
CCCCn1c2nc3ccccc3nc2c2c(=O)n(CCC)cnc21	i	nt	-8	-14	-5	2	-2	-8
O=C(COC(=O)Cc1ccc(Br)cc1)NC1CCCCCC1	i	-4	-4	nt	4	0	4	4
Cc1cnc(C(=O)OCC(=O)Nc2sc3c(c2C#N)CCC3)cn1	i	3	nt	3	0	2	5	nt
COC(=O)[C@]1(Cc2ccccc2)N[C@H](CN(C)C(=O)Nc2ccc(C(F)(F)F)cc2)[C@@H]2C(=O)N(Cc3ccccc3)C(=O)[C@@H]21	nt	28	nt	-12	nt	-9	-15	nt
O=C(COC(=O)c1cc(-c2ccco2)nc2ccccc12)NCc1ccc2c(c1)OCO2	i	nt	76	5	7	-9	2	-9	eIF4H inh retest=10;PABP polyA inh retest=-3
Cc1ccc(C(=O)COC(=O)C2CC(=O)N(c3nc(-c4ccccc4)cs3)C2)cc1C (stereo unspecified)	i	-62	-6	-17	-4	13	9	7
COc1ccc(NC(=O)c2cccc(-n3c(C)ccc3C)c2)c(OC)c1	i	-51	-4	nt	-12	-3	5	8
Oc1cccc(Nc2nc(NCC3CCCO3)c3ccccc3n2)c1 (stereo unspecified)	i	nt	-6	-3	7	16	0	-5
CN1CCN(S(=O)(=O)c2ccc(N3CCN(S(=O)(=O)c4cccs4)CC3)nc2)CC1	nt	nt	-9	-1	nt	3	2	-31
COc1ccc(OC)c(CN2CCC(Cc3ccccc3)CC2)c1	i	-4	21	1	48	5	4	16
CCN(CC)CCC(c1ccc(N(C)C)cc1)c1c(OC)cc(OC)c2ccc(=O)oc12 (stereo unspecified)	i	20	3	-3	9	2	0	10
CC(C)c1cccc(C(C)C)c1NC(=O)COC(=O)c1ccc2c(c1)S(=O)(=O)c1ccccc1C2=O	i	-10	-3	nt	-5	2	4	17
Cn1c(CNS(=O)(=O)c2ccc(Br)cc2)n[nH]c1=S	nt	0	-9	-24	-8	1	-1	-8
COc1ccccc1NC(=O)Nc1ccccc1C#N	i	-8	0	-15	8	-5	3	-3
O=C(c1ccccc1)N1CCN(C(=O)c2cc3nc(-c4ccccc4)cc(C(F)(F)F)n3n2)CC1	i	13	-8	-1	10	2	-3	8
CCC(c1nnc(SCC(=O)NCCc2ccc(Cl)cc2Cl)o1)N(C)C (stereo unspecified)	i	nt	0	-5	-13	0	-6	-6
CCOc1ccc(OCC)c(NC(=O)CSc2nnnn2CC)c1	i	-9	-9	nt	-12	5	6	-16
CCN(C(=O)COC(=O)c1ccccc1NCCO)c1cccc2ccccc12	i	-51	nt	19	3	-1	1	nt
CN(Cc1ccccc1C(F)(F)F)C(=O)C1CCC(=O)N(CC2CCCCC2)C1 (stereo unspecified)	nt	-7	nt	-16	nt	1	-9	nt
CCOCCCNC(=S)N(Cc1ccccc1)Cc1nc2ccccc2c(=O)[nH]1	i	nt	5	-16	-8	-10	-3	-6
CC(c1ccco1)N(C(=O)c1cc(Cl)cc(Cl)c1)c1ccccn1 (stereo unspecified)	i	-6	-2	3	nt	-4	-7	4
CCOC(=O)CC(=O)Nc1nnc(C(C)C)s1	i	-122	-9	-1	-13	-1	3	4
Cc1ccccc1N1C(=O)C2ON(c3ccccc3)C(c3cccnc3)C2C1=O (stereo unspecified)	i	-55	27	-16	-11	-2	1	22
Cc1cc(C)c(NC(=O)CNC(=O)c2cc(C3CC3)nn2-c2ccccc2)c(C)c1	nt	nt	nt	-2	-10	1	-2	nt
O=C(NCCCN1CCOCC1)C1CCN(S(=O)(=O)c2cccc(Cl)c2Cl)CC1	i	-1	nt	-21	20	1	-2	nt
O=C(COC(=O)/C=C/c1cccc(F)c1)NNC(=O)c1ccccc1	i	23	8	1	nt	3	3	-8
CCCC[C@@H]1CNC(=S)N1CCc1cccc2ccccc12	+	9	-11	-23	-15	8	-1	-6
CCN(C(=O)c1ccco1)c1nnc(-c2ccc(OC)cc2)s1	i	nt	-3	-1	-3	-7	-3	-7
O=C(/C=C\c1ccc2c(c1)OCO2)NC1(C(=O)Nc2ccc3c(c2)OCO3)CCCCC1	i	-19	0	0	-8	4	0	2
CCN(C(=O)CN1CCN(C)CC1)c1cccc2ccccc12	i	nt	15	-10	-22	-5	-2	8
COc1ccc(/C=C/C(=O)N2CCOCC2)cc1OC	i	4	-6	-10	-7	0	3	-7
O=C(Nc1ccncc1)Nc1ccccc1Cl	i	9	-10	-27	-1	2	-7	-2
CCOc1cc(/C=C/c2nc3cc(C)c(C)cc3s2)ccc1OCC(=O)N1CCOCC1	i	-9	0	-9	11	7	2	3
CCOC(=O)C1CCN(C(=O)CCc2c(C)nc3cc(-c4ccccc4)nn3c2C)CC1	i	-1	-9	-15	0	4	2	9
O=C(NC1=NCCS1)Nc1ccccc1	i	-84	-8	-33	-1	0	-5	-13
C[C@@H]1CN([C@@H](C)CO)C(=O)c2cccc(NS(=O)(=O)c3ccc(F)cc3)c2O[C@H]1CN(C)C(=O)NC1CCCCC1	nt	1[16.7 µM]	nt	2&-6	nt	1	1	nt
O=C(COc1ccc(Cl)c(Cl)c1)NC1CCS(=O)(=O)C1 (stereo unspecified)	nt	nt	nt	-18	-16	-1	4	nt
Cn1c(=O)[nH]c(=O)c2c1nc(N(CCO)Cc1ccccc1)n2Cc1ccccc1Cl	i	-45	5	-5	-3	-7	-3	-2
CCn1cc(C(=O)O)c(=O)c2cnc(N3CCN(C(=S)Nc4ccccc4C(F)(F)F)CC3)nc21	i	16	1	-9	-6	2	-19	-7
COc1ccc(S(=O)(=O)N(C)CC(=O)Nc2c(F)cccc2F)cc1	i	nt	-17	-9	-12	-1	4	-6
COc1ccccc1N1CCN(C2CCN(C(=O)c3ccc(F)cc3)CC2)CC1	i	16	0	-20	-6	3	4	-2
CN1CCC(N2CCN(c3cccc(C(F)(F)F)c3)CC2)CC1	i	-20	-5	-10	49	7	3	21
COc1ccc(NC(=O)CN(C)C(=O)CSc2nc3ccccc3s2)cc1	i	26	nt	nt	-5	-5	4	nt
CC1CCN(Cc2nnnn2-c2cccc([N+](=O)[O-])c2)CC1	i	17	3	nt	2	2	5	10
Cc1ccccc1CC(=O)N1CCOCC1	i	-4	-10	-2	1	-1	5	4
CCc1ccc(NC(=O)c2onc(C)c2Cl)cc1	i	-60	-7	-22	0	-2	3	0
COc1cccc(/C=C2\C(=O)N(c3cccc(C)c3)C(=O)c3ccccc32)c1	i	2	6	nt	13	0	1	4
Cc1c(NS(=O)(=O)c2cccc(C(=O)Nc3ccc(SC(F)F)cc3)c2)c(=O)n(-c2ccccc2)n1C	nt	6	nt	-8	nt	2	-6	nt
CCOc1c2ccc(C(=O)NCc3ccc(C)cc3)cc2nn1CC	i	-4	2	-18	-1	3	7	1
Cc1cc(-c2cc(-c3ccccc3)on2)nc(NC2CCCC2)n1	i	-10	-3	-6	18	-2	-4	20
C/C(Cn1nnc([N+](=O)[O-])n1)=N\NC(=O)c1ccc(C)cc1	i	nt	3	-13	-7	6	-2	-9
CCOC(=O)Cn1nc(C)c2ccccc2c1=O	i	nt	-2	-11	-9	1	-1	-1
CN(NS(=O)(=O)c1cccs1)c1ncc(C(F)(F)F)cc1Cl	i	11	1	0	-1	-3	3	3
CC(C)n1cnc2c(=S)nc[nH]c21	i	-4	6	nt	-7	0	1	-4
CC(C)OC(=O)NCN1C(=O)C2C3C=CC(C3)C2C1=O (stereo unspecified)	i	nt	1	-12	-11	-1	1	2
CCN(CC)C(=O)[C@H]1C[C@H](CC(=O)NCCC2=CCCCC2)C(=O)N2CCc3c([nH]c4cc(CCC(=O)N(C)C)ccc34)[C@]12C	nt	-63	nt	10	nt	-1	1	nt
Cn1nnnc1SCCNC(=O)C1CCC(=O)N(CCc2ccccc2)C1 (stereo unspecified)	i	-1	-4	-9	-9	0	8	-2
COc1ccc(Cn2nnnc2C(c2cc3cc(C)ccc3[nH]c2=O)N2CCOCC2)cc1 (stereo unspecified)	i	67*	-2	-8	-12	2	3	30

Retrieved by structure from the entries so far:
SMILES	Rce1 inhib	Env fusion inh	eIF4H inh	UUG fidelity	CSC inhib	MT1-MMP act inh	MT1-MMP act inh RFP	PABP polyA inh	others
CCOc1c2ccc(C(=O)NCc3ccc(C)cc3)cc2nn1CC	i	-4	2	-18	-1	3	7	1
COc1ccccc1N1CCN(C2CCN(C(=O)c3ccc(F)cc3)CC2)CC1	i	16	0	-20	-6	3	4	-2
CCOC(=O)Cn1nc(C)c2ccccc2c1=O	i	nt	-2	-11	-9	1	-1	-1

(continued)
SMILES	Rce1 inhib	Env fusion inh	eIF4H inh	UUG fidelity	CSC inhib	MT1-MMP act inh	MT1-MMP act inh RFP	PABP polyA inh	others
O=c1c(Cl)c(NCC2CCCO2)cnn1C12CC3CC(CC(C3)C1)C2 (stereo unspecified)	i	5	-12	-6	31	3	1	3
COc1ccc2c(COC(=O)[C@@H]3CCCN3S(=O)(=O)c3ccc(Cl)cc3)cc(=O)oc2c1	nt	-2	nt	-4	nt	-1	3	nt
Cc1nonc1NC(=O)CSc1nc2ccc(Cl)cc2[nH]1	i	-9	-5	-15	-8	1	-2	12
CCc1nnc(NC(=O)c2ccc3c(c2)C(=O)N(CC)C3=O)s1	nt	-91	nt	-16	-17	-4	0	nt
O=C(Nc1ccccn1)C(=O)N1CCCCC1	i	-42	4	1	-9	2	-2	-6
Cc1cc(NC(=O)COC(=O)c2nccnc2N)n(-c2ccccc2)n1	+	nt	nt	-32	-14	6	-8	nt
COC(=O)Cc1cc(=O)[nH]c(/N=C(\N)Nc2ccc(C(C)C)cc2)n1	i	8	-2	nt	0	-1	-7	-2
Cc1csc(=O)n1CCC(=O)O	i	-30	-4	-17	-3	2	4	2
Nc1c(-c2ccc(Cl)cc2)cnc2c(-c3ccccc3)cnn12	i	-140	-6	-15	nt	3	1	-12
COc1ccc(C2=NOC(Cn3nc(-c4ccccc4C)cc3C(=O)O)C2)cc1 (stereo unspecified)	nt	-5	nt	-17	11	1	5	nt
CCOc1ccccc1Nc1nnc(SCC(=O)NC2CCS(=O)(=O)C2)s1 (stereo unspecified)	nt	-8	nt	-2	-1	4	4	nt
C/C(Cn1nnc([N+](=O)[O-])n1)=N\NC(=O)c1ccc(O)cc1O	i	25	9	nt	-14	-13	-12	1
CC(=O)c1ccc(OCCCCCCCOc2ccc(C(C)=O)cc2)cc1	i	nt	1	-18	0	4	-7	-3
O=C(COC(=O)c1cccc(OC(F)F)c1)NC1CCCC1	i	2	8	-14	-12	1	3	-4
Cc1nc2ncccn2c1-c1csc(Nc2ccc(O)cc2)n1	i	12	1	nt	nt	6	-8	11
COc1ccc(C2C3=C(CC(C)(C)CC3=O)Oc3ncn(CC(C)C)c(=N)c32)cc1 (stereo unspecified)	i	nt	0	-5	23	-17	-15	-2
